GALR2 ag = GALR2 receptor agonists, primary screen, cell-based; GALR2-expressing cells, agonist activation read-out; 140,000 tested, 0.48% active; activation, %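 (tested at 5 µM)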;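 active = above mean plus 3 SD of all compounds, about 5% in these data, not always enough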;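 also: 0% = vehicle buffer wells and 100% = reference agonist at full effect; tested in CHO reporter cells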
Insulin prom inh = inhibitors of insulin promoter-driven GFP, primary screen, imaging, TRM-6 cells (human fetal islet line), eGFP reporter, cell count; reporter expression induced with tamoxifen; inhibition, % at 2 µM; 130,000 tested, 0.9% active; AID 1273, 2008;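 active = inhibition above the mean plus 3 SD, with well images judged a real hit on visual review, cut at about 60% in these data, passing the limit was not always enough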
RGS16-Gao = modulators of RGS16 binding to Galphao, primary screen, biochemical, human proteins, multiplexed bead flow cytometry | Regulator of G-protein signaling 16 (Homo sapiens) + Guanine nucleotide-binding protein … | bead-based flow cytometry RGS16-Galphao binding, fluorescence; actives lie on both sides | binding response (% of control), % at 10 µM | 220,000 tested, 0.38% active;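 active = below 25% or above 175%, edge rows of some plates excepted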;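 also: Galphao activated by GDP with aluminum fluoride before binding; 100% = wells without compound and 0% = beads without RGS; some results beyond the cut were filed as inactive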
PKD1 kinase inh = inhibitors of human PKD1 kinase, biochemical, fluorescence polarization; Serine/threonine-protein kinase D1 (Homo sapiens), Q15139; PKD1 kinase fluorescence polarization assay; inhibition, %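 (about 10 µM by stock and volumes)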; 200,000 tested, 0.056% active;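 active = inhibition of 50% or more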;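 also: controls were vehicle for no effect and a reference inhibitor for full effect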
Target sequence (Q15139 whole entry, looked up): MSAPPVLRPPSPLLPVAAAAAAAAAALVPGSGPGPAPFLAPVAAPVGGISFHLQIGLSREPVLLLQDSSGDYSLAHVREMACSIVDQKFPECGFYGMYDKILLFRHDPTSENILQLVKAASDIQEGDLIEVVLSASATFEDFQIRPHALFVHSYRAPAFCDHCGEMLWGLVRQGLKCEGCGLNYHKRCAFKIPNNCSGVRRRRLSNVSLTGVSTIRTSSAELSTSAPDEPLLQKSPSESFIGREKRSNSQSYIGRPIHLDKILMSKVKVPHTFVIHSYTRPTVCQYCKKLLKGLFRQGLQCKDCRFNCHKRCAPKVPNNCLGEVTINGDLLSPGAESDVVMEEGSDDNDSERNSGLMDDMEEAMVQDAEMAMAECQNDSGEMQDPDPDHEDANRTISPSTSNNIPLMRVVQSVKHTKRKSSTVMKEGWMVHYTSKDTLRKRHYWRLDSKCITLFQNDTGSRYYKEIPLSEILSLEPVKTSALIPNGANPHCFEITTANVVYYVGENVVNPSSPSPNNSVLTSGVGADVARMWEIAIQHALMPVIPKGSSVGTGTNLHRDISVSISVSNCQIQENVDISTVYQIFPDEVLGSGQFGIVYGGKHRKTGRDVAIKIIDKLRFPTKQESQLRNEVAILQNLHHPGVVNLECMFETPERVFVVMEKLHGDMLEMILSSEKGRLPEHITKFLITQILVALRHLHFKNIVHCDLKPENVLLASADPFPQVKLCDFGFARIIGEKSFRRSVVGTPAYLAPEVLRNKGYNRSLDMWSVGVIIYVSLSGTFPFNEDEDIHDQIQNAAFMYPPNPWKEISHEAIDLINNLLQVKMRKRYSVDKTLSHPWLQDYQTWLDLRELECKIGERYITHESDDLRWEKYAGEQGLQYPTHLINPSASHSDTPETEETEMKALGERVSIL
HSV augment = enhancers of HSV replication in host cells, fold increase, host cell viability. HSV replication augmentation in cells. maximum fold increase. 220,000 tested, 0.005% active. AID 1956, 2009;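 active = peak rise of 1.5-fold or more in the series; tested in PC3 cells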;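 also: first round at 10 µM; read as green reporter fluorescence; hits show the peak of a series up to 25 µM; 1 = signal of infected wells without compound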
Insulin prom inh cell count = second read-out of Insulin prom inh, no call of its own (marks repeat the call); normalized cell count, %; measured here: cell count, toxicity; reference of the scale not given here;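 cells exposed to compound for 48 h; stained nuclei by imaging scaled within each plate; lower means fewer cells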
HSV augment primary fold = recorded beside HSV augment, whose call it bears; fold increase; compound at 10 µM; measured here: primary screen fold increase 10 uM; tested in PC3 cells;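 GFP signal in the first replicate; 1 = infected wells without compound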
The depositor's hits bear a star; i = inactive; . = no result given; & = joins results of further samples.

SMILES	GALR2 ag	Insulin prom inh	Insulin prom inh cell count	RGS16-Gao	PKD1 kinase inh	HSV augment	HSV augment primary fold
Cc1cc(Nc2cc(F)ccc2C)n2nc(C)nc2n1	0.2	-45	97	79	-9	.	.
CCc1ccc(Sc2cc(C(=O)NCCN3CCOCC3)c3ccccc3n2)cc1	-1.3	17	94	90	-11	i	0.89
CCCn1nc(C(=O)OCn2nnc3ccccc3c2=O)c2ccccc2c1=O	-0.2	-10	129	100	-6	i	1.1
Cc1ccc(Cn2nnnc2CN2CCC(NC(=O)c3ccccc3F)CC2)cc1	-2.1	-31	244	101	1	i	1.1
CCN(CC)CCNc1nc2ccccc2n1C	-2.1	-21	88	103	-3	i	0.82
Cc1ccc(N(C)S(=O)(=O)c2cccc(C(=O)Oc3ccc4c(C)cc(=O)oc4c3)c2)cc1	-2.1	15	130	99	-1	i	1.1
Cc1ccccc1C(=O)OCn1nnc2ccccc2c1=O	-0.8	-29	128	98	-6	i	0.66
Cc1nnsc1Sc1ccccc1C(=O)O	.	.	.	99	-4	i	0.99
C/C(=N\NC(=O)c1ccc(OC2OCCOC2Oc2ccc(C(=O)N/N=C(\C)c3ccncc3)cc2)cc1)c1ccncc1 (configuration not stated)	.	.	.	102	.	i	0.87
COCCN(C(=O)Cc1cccs1)C(C(=O)NCc1ccc(OC)cc1)c1ccc(C)cc1 (configuration not stated)	-2.2	-41	102	106	-1	i	1.1
O=C(C1=C(O)C(=O)N(CCN2CCOCC2)C1c1ccncc1)c1ccco1 (configuration not stated)	-2.0	.	.	99	-7	i	0.76
COC(=O)c1ccc(OC(=O)c2ccccn2)cc1	-2.4	-25	84	101	1	i	1
Cc1ccn2c(C(=O)N/N=C\c3ccc4c(c3)OCO4)c(C)nc2c1	-0.1	27	126	100	-2	i	1
COCc1ccc2oc(C(=O)O)cc2c1	-3.1	6	106	88	2	i	0.76
O=C(Nc1cccc2ccccc12)c1ccc([N+](=O)[O-])s1	-1.1	-31	113	101	5	i	0.53
O=C(N/N=C/c1cnc2ccccc2n1)c1cccc(F)c1	0.6	-36	162	63	0	i	0.99
O=C(COc1ncnc2sccc12)N1CCN(S(=O)(=O)c2ccc(Cl)cc2)CC1	-1.4	-36	110	109	-3	i	1
CC(=O)Nc1sc(C)c(C)c1C(=O)OC1CCOC1=O (configuration not stated)	-2.0	.	.	103	-7	i	1.1
COc1ccc(N2CCN(C(=O)CCc3ccc(S(=O)(=O)NC(C)(C)C)cc3)CC2)cc1	.	.	.	104	.	i	1.1
COCCN1C=C(C(=O)OC)C(c2ccc3c(c2)OCO3)C(C(=O)OC)=C1	-1.1	.	.	99	-1	i	1.1

Rewritten with each value named: entries from further up
O=C(Nc1cccc2ccccc12)c1ccc([N+](=O)[O-])s1
  GALR2 ag: -1.1	Insulin prom inh: -31	Insulin prom inh cell count: 113	RGS16-Gao: 101	PKD1 kinase inh: 5	HSV augment: i	HSV augment primary fold: 0.53
COc1ccc(N2CCN(C(=O)CCc3ccc(S(=O)(=O)NC(C)(C)C)cc3)CC2)cc1
  GALR2 ag: .	Insulin prom inh: .	Insulin prom inh cell count: .	RGS16-Gao: 104	PKD1 kinase inh: .	HSV augment: i	HSV augment primary fold: 1.1

Further compounds follow.
SMILES	GALR2 ag	Insulin prom inh	Insulin prom inh cell count	RGS16-Gao	PKD1 kinase inh	HSV augment	HSV augment primary fold
CS(=O)(=O)c1ccc(Sc2nc3ccccc3[nH]2)c([N+](=O)[O-])c1	-1.9	-29	170	101	-5	i	0.6
COCC(=O)NC1CCN(CC(=O)Nc2ccccc2[N+](=O)[O-])CC1	.	.	.	86	12	i	0.91
O=C(Cc1cc(=O)[nH][nH]1)N/N=C/C(Cl)=C/c1ccccc1	0.2&1.1	0&19	159&60	99&93	-7&-8	i	0.97&1.1
O=C(Cc1ccccc1)N/N=C/c1ccc([N+](=O)[O-])s1	-2.1	.	.	86	0	i	0.87
C/C(=N\NC(=O)COc1ccccc1-c1ccccc1)c1cccnc1	.	.	.	101	-4	i	0.83
O=[N+]([O-])c1ccc(-c2csc(N3CCc4ccccc4C3)n2)cc1	-1.9	-58	99	106	5	i	1.1
O=c1c2ccccc2nnn1CSc1nnc(-c2ccco2)o1	-2.0	-48	99	96	-6	i	0.89
Cc1cc(C)cc(NC(=O)CSCc2cnn(-c3ccccc3)c2-n2cccc2)c1	-2.9	-66	146	103	-1	i	0.82
CC1=C(C(=O)NCc2ccccc2)C(c2cc(Br)cc(Br)c2OC(C)C)NC(=O)N1 (configuration not stated)	-3.3	-10	79	105	3	i	0.81
CCOc1ncccc1C(=O)NCCN1C(=O)S/C(=C/c2cccs2)C1=O	-0.8	38	128	102	5	.	.
CC(C)(C)C(=O)OCc1cn(-c2ccc(Cl)cc2)nn1	-3.4	3	91	100	-6	i	1
CCC(C)(C)NC(=O)c1cccc(NC(=O)C(C)C)c1	.	.	.	99	0	i	1.1
CCn1nnnc1SCC(=O)Nc1nc(-c2cccs2)cs1	-0.1	-28	150	99	10	i	1.1
COc1ccccc1/C=N/OC(=O)c1ccc(C)cc1	.	.	.	101	3	i	1
CCOc1ccc(NC(=O)CSc2nnc(Cn3cnc([N+](=O)[O-])n3)n2C)cc1	-0.6	13	113	102	3	i	0.99
CC1C=CCC2C(=O)N(c3cc(Cl)ccc3O)C(=O)C12 (configuration not stated)	.	.	.	104	0	i	0.96
COc1ccccc1/C=C/C(=O)OCC(=O)NCc1ccco1	-0.7	-13	109	100	-9	i	0.91
CC(C)n1nc(C(=O)OCC(=O)N(C)C2CCS(=O)(=O)C2)c2ccccc2c1=O (configuration not stated)	2.0	.	.	99	-6	i	1.1
O=C(Nc1cnc2ccccn2c1=O)c1ccc(Cl)cc1	-2.7	-22	120	105	3	i	0.91
NC(Cc1c[nH]c2ccccc12)C(=O)NCc1ccco1 (configuration not stated)	.	.	.	109	-4	i	0.98
CC(CCc1ccccc1)NC(=O)CN1CCN(c2ccc(O)cc2)CC1 (configuration not stated)	.	-40	45	102	-10	i	0.8
Cc1cc(NC(=O)NC2(C(F)(F)F)Oc3ccc(Cl)cc3O2)no1 (configuration not stated)	-4.1	-47	120	101	4	i	0.82
N/C(=N\OC(=O)c1cccc2ccccc12)c1cccnc1	.	.	.	106	-3	i	0.98
Nc1c2nc(-c3ccccc3)[nH]c(=O)c2nc(=O)n1-c1ccccc1	.	.	.	96	.	i	0.9
COc1ccccc1C(=O)NNC(=S)Nc1ccccc1	.	37	111	102	-2	i	1
Cc1ccc(SCC(=O)c2c(C)nc3ccccn23)cc1	.	.	.	134	-1	i	0.89
Cn1nnc(-c2ccc(OCc3ccccc3F)cc2)n1	-3.7	52	125	101	1	i	0.96
CC/C(=N\n1nnnc1Nc1ccccc1)c1ccccc1	-1.9	30	125	91	2	i	0.9
Cc1cc(=O)c(C(=O)O)cn1Nc1ccc(F)cc1	-1.4	-7	135	103	-7	i	0.98
CO/N=C/C(C#N)=C/c1cc(C(=O)c2ccc(F)cc2)cn1C	.	-14	40	132	0	i	0.75
Cc1onc(-c2c(Cl)cccc2Cl)c1C(=O)Nn1cnnc1	-0.7	42	109	102	-5	i	0.91
COc1ccc(CN2CCN(C(=O)c3ccco3)CC2)cc1	-1.7	-12	102	101	7	i	0.87
COc1ccc(C(C)(C)C)cc1NC(=O)CCCn1c(=O)oc2ccccc21	0.1	-10	107	112	-2	i	0.98
N#Cc1cccc(Cn2nnc(-c3ccccc3)n2)c1	-1.4	-7	116	102	0	i	0.83
Cc1ccc(C)c(NC(=S)N2CCCCC2CO)c1 (configuration not stated)	.	0	38	108	-4	i	0.98
COc1ccc(C(=O)NCc2ccc3c(c2)CCO3)cc1	.	.	.	95	.	i	0.98
CCOC(=O)N1CCN(C(=O)CN2C(=O)COc3ccc(C)cc32)CC1	0.8	-16	94	103	0	i	0.71
CCCC(=NCC(=O)O)C1=C(O)C(C(=O)OC)C(C)(C)CC1=O (configuration not stated)	-1.0	.	.	71	2	i	1
Cc1ccc(C(=O)Nc2cccnc2Oc2ccc(Cl)cc2)cc1	.	.	.	97	.	i	0.93
O=C(NCc1cccs1)c1cc(S(=O)(=O)N2CCCCC2)ccc1Cl	-1.5	-28	76	103	-2	i	1.1

Single records, from the list above. Order of screens: GALR2 ag	Insulin prom inh	Insulin prom inh cell count	RGS16-Gao	PKD1 kinase inh	HSV augment	HSV augment primary fold
COc1ccc(CN2CCN(C(=O)c3ccco3)CC2)cc1 in the list: -1.7	-12	102	101	7	i	0.87
N#Cc1cccc(Cn2nnc(-c3ccccc3)n2)c1 in the list: -1.4	-7	116	102	0	i	0.83
Cc1onc(-c2c(Cl)cccc2Cl)c1C(=O)Nn1cnnc1 in the list: -0.7	42	109	102	-5	i	0.91
CCCC(=NCC(=O)O)C1=C(O)C(C(=O)OC)C(C)(C)CC1=O (configuration not stated) in the list: -1.0	.	.	71	2	i	1
Cc1ccc(C)c(NC(=S)N2CCCCC2CO)c1 (configuration not stated) in the list: .	0	38	108	-4	i	0.98

(continued)
SMILES	GALR2 ag	Insulin prom inh	Insulin prom inh cell count	RGS16-Gao	PKD1 kinase inh	HSV augment	HSV augment primary fold
CN=C(C)C1=C(O)C(C(=O)OC)C(C)(C)CC1=O (configuration not stated)	0.5	45	72	90	-4	i	1
COC(=O)CCCCCN1C(=O)NC(c2ccccc2)C(C(=O)OCc2ccccc2)=C1C (configuration not stated)	1.1	-10	129	106	5	i	0.94
O=C(O)c1ccnc(Cl)c1	-1.3	27	40	108	-5	i	0.95
Cc1cc(C(=O)Oc2ccccc2C(=O)O)c(C)o1	-1.4	.	.	103	-6	i	0.89
Fc1ccccc1CSc1ncn[nH]1	-0.8	-100	99	107	-6	i	0.87
O=[N+]([O-])c1ccccc1NCc1c(O)ccc2ccccc12	.	.	.	103	.	i	0.92
CN(c1ccc(C(=O)N2CCOCC2)cc1[N+](=O)[O-])C1CCCCC1	-1.7	.	.	87	2	i	1
COC(=O)c1cc(CNC(=O)c2ccc(O)c(Cl)c2)ccc1OC	0.8	35	82	146	1	i	1
CCCC(=O)N1CCN(c2ccc(NC(=O)c3ccco3)cc2)CC1	-1.5	.	.	97	0	i	0.84
O=C(C[n+]1ccccc1)Nc1cc(C(F)(F)F)ccc1Cl	-0.8	13	110	60	2	i	0.92
CCn1cc(C(=O)NCc2ccc(C)o2)c2cc(OC)c(OC)cc2c1=O	-0.1	.	.	102	-9	i	1
CC(C)(C)C(=O)Nc1sc2c(c1C(=O)Nc1ccccn1)CCCC2	.	.	.	110	3	i	1
CC1(C)CC2(CCO1)C(Nc1ccccc1)=NC(=S)N2CC(N)=O (configuration not stated)	.	.	.	102	.	i	0.89
O=C(OCc1cncs1)c1cccs1	.	24	94	103	5	i	1.1
CCO[C@H]1OC(C(=O)N2CCN(Cc3ccc4c(c3)OCO4)CC2)=C[C@@H](c2csc3ccccc23)[C@@H]1CCCO	.	.	.	91	9	i	0.92
CCCC(=O)NC(=S)Nc1ccc(NC(=O)c2cccs2)cc1	-4.1	-35	113	76	-8	i	0.89
COc1ccc(NC(=O)CNS(=O)(=O)c2ccccc2)cc1Cl	-2.2	23	132	88	-9	i	0.86
CC(C)N1C(=S)N(Cc2ccco2)C(=O)C1CC(=O)Nc1ccccc1 (configuration not stated)	.	-25	151	105	-3	i	0.99
CN(C(=O)CSc1nnc(-c2ccccc2)o1)c1c(N)n(Cc2ccccc2)c(=O)[nH]c1=O	.	.	.	96	-5	i	1.1
c1ccc(-c2nnc(-c3ccccc3)o2)cc1	-3.4	-5	132	109	0	i	1.1
CSC1=NCCN1C(=O)COc1ccccc1	-1.5	.	.	207	-6	i	0.84
CCOc1ccc(/C=C/C(O)=C2/C(=O)NC3(C)CC2c2ccccc2O3)cc1OC (configuration not stated)	.	-47	58	107	-5	i	0.77
CCC(=O)c1ccc(OCCSc2ncccn2)cc1	-1.4	-120	93	221	11	i	0.97
Cc1cc(NC(=O)c2c(F)cccc2Cl)no1	.	.	.	97	-1	i	1
O=C(CC12CC3CC(CC(C3)C1)C2)NC(=S)NCc1ccco1	.	-29	135	100	-4	i	0.94
Cn1ncc2c(NNC(=O)Cc3cccc4ccccc34)ncnc21	0.3	11	60	114	-14	i	0.9
CCCCCCc1cc2cc(S(=O)(=O)c3ccc(Cl)cc3)c(=O)oc2cc1O	20*	27	106	123	-6	i	1
CCN1CCc2c(OCC(=O)N3N=C(c4cccs4)CC3c3ccc(F)cc3)cccc2C1=O (configuration not stated)	-0.8	.	.	104	-1	.	.

From PubChem BioAssay

Compounds as they come; about 1.3% have a hit in one of these screens.
